Tg IFNy HTS – T. gondii growth inhibition with IFN-gamma, primary screen, cell-based; AID 1259416, 2018; activity change, negative = inhibition, %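 (about 20 µM by stock and volumes)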; Toxoplasma gondii growth in IFN-gamma-treated host cells; stronger effect = lower value; reference of the scale not given here; 69,000 compounds, 3.8% hits;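 active = below -70%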;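 note: host cells are HeLa cells infected with Toxoplasma gondii; parasite growth read as luciferase light; one replicate is shown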
* marks the source's active call; other numbers are inactive results; i = inactive. An excerpt; the hit share may differ from the screen's.

Structure	Tg IFNy HTS
Cc1ccc(Nc2nc(C(=O)NCc3ccc(Cl)cc3)nc3ccccc23)cc1	56
CC(Oc1cccc(-c2ccccc2Cl)c1)C(N)=O (stereo not drawn)	-6
CC(C)CNC(=O)N1CC[C@H]2CN(CC(=O)N(C)C)S(=O)(=O)[C@@H]2CC1	0
CCCN1C[C@@H](C)[C@@H](OC)CN(C)C(=O)c2ccc(NS(=O)(=O)c3cn(C)cn3)cc2OC[C@@H]1C	-16
CC1=C(C(=O)NCCCN2CC(C)CC(C)C2)C2(CCN(Cc3ccccc3)CC2)OC1=O (stereo not drawn)	-65
COc1ccc(-c2ccc([C@H]3[C@H]4CN(Cc5ccccc5)CC(=O)N4[C@H]3CO)cc2)cc1	-17
Clc1ccccc1-c1nc(NCCCc2ccccc2)c2ccccc2n1	-38
Cc1nc(CCNC(=O)C2CCN(C(=O)c3ccc(F)cc3)CC2)cs1	-12
c1ccc(CCn2cc(-c3nc(-c4ccc5nc[nH]c5c4)no3)nn2)cc1	-27
CC1=CC(C)(C)N2C(=O)C3(NCCc4c3[nH]c3ccccc43)c3cccc1c32 (stereo not drawn)	7
O=C1N[C@H](c2ccccc2)COCc2cn(nn2)CC[C@@H]1Cc1cccc(Cl)c1	3
CCc1cccc(-n2c(CNC)n[nH]c2=O)c1	-25
CCOC1C2CCC1N(S(=O)(=O)c1cccc(C)c1)CCO2 (stereo not drawn)	17
CCOC(=O)c1c(NC(=O)CC)sc(C(=O)OC(C)C)c1C	6
CN1CCC2(CCCN(C(=O)c3nnc4n3CCCCC4)CC2)CC1	-41
O=C(C[C@@H]1CC[C@H]2[C@@H](COC[C@@H](O)CN2Cc2nccs2)O1)NCc1ccccc1Cl	14
Cc1ccc(S(=O)(=O)N2CCC3(CC2)Nc2cc(C)ccc2-n2cccc23)c(C)c1	11
O=S(=O)(N1CCCCCC1)N1CCCCC1c1ccccn1 (stereo not drawn)	4
CN(Cc1csc(-c2ccccc2)n1)Cc1nc(-c2cccc(Cl)c2)no1	-5
Cc1ccc(C)c(NC(=O)C(=O)NCCc2sc(-c3ccc(Cl)cc3)nc2C)c1	73
CCOc1ccc(C(=O)Nc2ccc(N3CCN(C(C)=O)CC3)cc2)cc1[N+](=O)[O-]	-13
Cc1cc(C(=O)N2CC[C@H]3CN(CC(C)C)S(=O)(=O)[C@@H]3CC2)no1	23
CC(=O)NCC(=O)N[C@@H](Cn1nnc2ccccc21)C(C)C	35
O=S(=O)(c1ccccc1)N1CCCCN2[C@@H](CO)[C@H](c3ccc(C#CC4CCCC4)cc3)[C@@H]2C1	-53
Cn1nc(CN2CCCC2)c2c1CN(C(=O)c1ccc[nH]1)CC2	0
COc1cccc(C(=O)Nc2ccc3c(c2)C(=O)N(C)[C@H]2CC[C@H](CC(=O)Nc4ccc5c(c4)CCCC5)O[C@@H]2CO3)c1	-59
CCOc1ccc(-c2cn(CC)nc2C)cc1	183
O=S(=O)(NCCCc1nc2ccccc2o1)NCc1ccccc1	3
CCc1ncnc2c1CCN(C(=O)c1cc(C)on1)CC2	2
CC(CCc1ccccc1)NC(=O)/C=C/c1ccccc1 (stereo not drawn)	5
CCN1c2cc(C)ccc2-n2cccc2C12CCN(C(=O)Nc1ccc(C)c(Cl)c1)CC2	5
COCCNC(=O)Cn1cc(CN(C)c2ccc3c(c2)OCCO3)c2ccccc21	i
COC[C@@H]1CCC[C@]12CN(S(=O)(=O)c1cn(C)cn1)CCO2	-2
COc1ccc(NC(=O)Nc2ccc(-c3nc(-c4ccccc4)co3)cc2)cc1Cl	34
Cc1cc(C(=O)NC(CC(C)(C)C)c2cccnc2)n[nH]1 (stereo not drawn)	3
COc1ccc(CCNC(=O)N2CCCCC2CCN2CCCC2=O)cc1 (stereo not drawn)	-1
CC1=C(C(=O)Nc2ccc(C)c(Cl)c2)C2(CCN(Cc3ccccc3)CC2)OC1=O	88
CCc1cccc(NC(=O)c2c(O)c3cccnc3n(-c3ccccc3)c2=O)c1	-38
CCN1C[C@@H](C(=O)NCCc2cccs2)C[C@@H]2OCC[C@@H]21	21
Cc1nn(CC(=O)NCCSCc2ccco2)c(C)c1Br	-20
COc1ccc(-c2nc(C)c(CCNS(=O)(=O)c3ccc(C)c(C)c3)s2)cc1OC	282
COCC1CN(Cc2ccsc2)Cc2cn(CC3CC3)nc21 (stereo not drawn)	8
COc1cccc(NC(=O)CSc2nc(N)c(-c3ccccc3)c(=O)[nH]2)c1	50
CC(C)c1cc(N2CCOC(C(F)(F)F)C2)nc(C(F)(F)F)n1 (stereo not drawn)	-81*
O=C(O)c1ccccc1SC1CC(=O)N(Cc2ccccc2)C1=O (stereo not drawn)	-32
CC(C)c1ccc(NC(=O)C2CC(=O)N(CCc3c[nH]c4ccc(Cl)cc34)C2)cc1 (stereo not drawn)	-70
CCc1[nH]c(=O)c(C(=O)Nc2ccc3c(c2)nc(CN2CCCCC2)n3C)cc1C	19
Cc1ccc2[nH]c(=O)c(-c3nc(-c4ccc(F)cc4)no3)c(O)c2c1	14
CCCNC(=O)Nc1ccc2c(c1)OC[C@@H](C)N(Cc1cncnc1)C[C@H](C)[C@H](OC)CN(C)C2=O	-4
c1cncc(CN2CCN(Cc3nc(-c4ccc5c(c4)OCO5)no3)CC2)c1	-13

Molecules above that contain fluorine, in the order listed:
Structure	Tg IFNy HTS
Cc1nc(CCNC(=O)C2CCN(C(=O)c3ccc(F)cc3)CC2)cs1	-12
CC(C)c1cc(N2CCOC(C(F)(F)F)C2)nc(C(F)(F)F)n1 (stereo not drawn)	-81*
Cc1ccc2[nH]c(=O)c(-c3nc(-c4ccc(F)cc4)no3)c(O)c2c1	14

Looked up one by one from the entries so far, 7 records:
Structure	Tg IFNy HTS
Cc1nn(CC(=O)NCCSCc2ccco2)c(C)c1Br	-20
COc1ccc(-c2nc(C)c(CCNS(=O)(=O)c3ccc(C)c(C)c3)s2)cc1OC	282
COCC1CN(Cc2ccsc2)Cc2cn(CC3CC3)nc21 (stereo not drawn)	8
CC1=C(C(=O)Nc2ccc(C)c(Cl)c2)C2(CCN(Cc3ccccc3)CC2)OC1=O	88
COc1ccc(NC(=O)Nc2ccc(-c3nc(-c4ccccc4)co3)cc2)cc1Cl	34
COc1cccc(C(=O)Nc2ccc3c(c2)C(=O)N(C)[C@H]2CC[C@H](CC(=O)Nc4ccc5c(c4)CCCC5)O[C@@H]2CO3)c1	-59
CCc1[nH]c(=O)c(C(=O)Nc2ccc3c(c2)nc(CN2CCCCC2)n3C)cc1C	19

Next compounds.
Structure	Tg IFNy HTS
COc1ccccc1NC(=O)N1C[C@@H](O)COC[C@H]2O[C@@H](CC(=O)N3CCC(Cc4ccccc4)CC3)CC[C@@H]21	-21
O=C(CC(F)(F)F)N1CCC2(C1)C(=O)NCC2c1ccccc1 (stereo not drawn)	171
COc1cccc(NC(=O)c2nc(Nc3ccccc3)c3ccccc3n2)c1	-76*
Cc1ccccc1Oc1ncccc1CNC(=O)c1cc(=O)c2ccccc2o1	-8
CCN1c2cc(C)ccc2-n2cccc2C12CCN(C(=O)NCCc1ccccc1)CC2	-1
N#CC(c1ccc(Cl)cc1)c1c(Cl)cc(-n2ncc(=O)[nH]c2=O)cc1Cl (stereo not drawn)	-53
CC(c1cccc(-c2ccccc2C(N)=O)c1)N1CCCC1 (stereo not drawn)	1
CC(=O)c1cccc(NC(=O)N[C@@H](CC(C)C)C(=O)O)c1	14
OCc1cc2ccccc2nc1-c1cc(O)cc(CCC2CCCCN2)c1 (stereo not drawn)	-3
CS(=O)(=O)N1C[C@H]2COC[C@@H](CC(=O)NCc3ccco3)[C@H]2C1	-3
COC(=O)C(CCSC)NC(=O)c1ccc(C(F)(F)F)cc1 (stereo not drawn)	2
C[C@@H]1CN([C@H](C)CO)C(=O)c2c(c3ccccc3n2C)-c2ccccc2CO[C@@H]1CN(C)Cc1cccc(C(F)(F)F)c1	-68
Cc1nc(C(=O)NC(C)c2nc3c(s2)CCCC3)cs1 (stereo not drawn)	-64
COc1ccc(-c2nc(Cn3ccn4nc(-c5ccc(C)c(C)c5)cc4c3=O)c(C)o2)cc1	-20
COc1ccc(F)cc1S(=O)(=O)N1CCCC1c1nc(-c2cccnc2)n[nH]1 (stereo not drawn)	6
CSc1cccc(NC(=O)CN2CCC3(CC2)N=C(c2ccc(C)c(C)c2)C(=O)N3)c1	-50
Cc1nc(C(=O)Nc2ccccc2Cl)cc2c1[nH]c1ccccc12	-81*
CSc1ccc(NC(=O)N2CCOC(Cc3ccc(F)cc3)C2)cc1 (stereo not drawn)	30
COc1ccc(/C=C/CN2CCCn3cncc3C2)cc1	0
C[C@H]1CCCCO[C@@H](CN(C)Cc2ccncc2)[C@@H](C)CN([C@@H](C)CO)C(=O)c2cc(NC(=O)Cc3ccccc3)ccc2O1	30
CS(=O)(=O)N1Cc2cc(C(=O)NCC3CC3)nc(-c3cccc(-c4cncnc4)c3)c2[C@@H]1CCO	-27
CC(=O)N1CCCCN2[C@@H](CO)[C@H](c3ccc(-c4ccccc4)cc3)[C@@H]2C1	-5
CC(C)CC#Cc1ccc([C@@H]2[C@H](CO)N3C(=O)CN(C(=O)Nc4cc(F)ccc4F)C[C@@H]23)cc1	-49
OCCNc1ccc(-c2ccc(F)cc2Cl)nn1	24
Cc1noc(C)c1CN(C)Cc1cc2n(n1)CCNC2	6
COc1ccccc1CC(=O)N1CCC(c2nc(C(=O)N3CCCC3)c(C)o2)CC1	-9
CCn1ccc(C(=O)N2CCCC3(C2)Nc2cccnc2NC3=NCc2ccccc2)n1 (stereo not drawn)	36
Cn1cccc1C(=O)N1CCN2C[C@H](Oc3ccccc3)C[C@@H]2C1	7
O=C(NCc1ccc(Cl)cc1)c1c(O)c2cccnc2n(-c2cccc(F)c2)c1=O	139
Cc1nccn1CCN(C)c1nc(C(C)(C)C)nc2c1cnn2C	-12
COc1ccc2[nH]c(=O)c(CN3CCC(CNC(C)=O)C3)cc2c1 (stereo not drawn)	-7
Cc1nsc(NC(=O)NCc2cccc(-n3cncn3)c2)n1	-11
CO[C@@H]1CN(C)C(=O)c2cc(NS(=O)(=O)CC(F)(F)F)ccc2OC[C@@H](C)NC[C@@H]1C	384
O=C(CCn1c(=O)sc2ccccc21)Nc1ccc(S(=O)(=O)N2CCCCC2)cc1	-88*
Cc1ccn2cc(C(=O)NCc3ccccc3)nc2c1	30
CO[C@H]1CN(C)C(=O)c2ccc(NC(=O)Nc3cc(F)ccc3F)cc2OC[C@@H](C)N(C(=O)c2ccccn2)C[C@@H]1C	-88*
COc1ccc2c3c(n(C)c2c1)[C@H](CO)N(CC1CC1)CC31CN(S(=O)(=O)c2cn(C)cn2)C1	184
CN1CCOCC12CCN(C(=O)c1cn(C)cn1)CC2	3
O=C(C1CCCN1)N(Cc1ccccc1)Cc1nccs1 (stereo not drawn)	11
COc1ccc2c3c([nH]c2c1)[C@H](CO)N(Cc1ccccn1)CC31CN(C(=O)CC2CC2)C1	-26
O=C(c1cccc(O)c1)N1CCCC2(COCCN(CC3CC3)C2)C1 (stereo not drawn)	-2
CCCc1ccc(C(=O)N(C)Cc2ncc[nH]2)cc1	-19
COc1ccc(C(=O)NCCc2csc(-c3ccc(F)cc3)n2)cc1OC	25
CC(NC(=O)c1ccnn1C)c1ccc(F)cc1 (stereo not drawn)	-1
Nc1nc(N)c2c(OCc3ccc(C(F)(F)F)cc3)cccc2n1	-74*
O=C(Oc1cc(Cl)cc(Cl)c1)c1cnc2n(c1=O)CCS2	35
O=C(Nc1c(C(=O)N2CCN(c3ccccn3)CC2)[nH]c2ccccc12)c1ccc(Cl)cc1	-21
COc1cccc(C(=O)Nc2ccc(C)cc2-c2ccccc2CO)c1	17
COc1ccc(C2(NCc3ccc4cc(OC)ccc4n3)CCCC2)cc1	115
CCN(CC)C(=O)CN1CCC(Cc2cc(NC3CCCC3)nc(C)n2)CC1	-17

(next part)
Structure	Tg IFNy HTS
COc1cccc(CN2[C@@H](CO)[C@@H](c3ccccc3)C23CN(C(=O)C2CCCCC2)C3)c1	-52
C[C@H](CO)N1C[C@H](C)[C@@H](CN(C)CC2CCCCC2)Oc2ccc(NS(=O)(=O)c3cccs3)cc2CC1=O	-22
CCCCCCCC/C=C\CCCCCCCC(=O)NCCc1ccc(O)c(O)c1	-35
O=C(Cc1ccncc1)N(Cc1ccc(F)cc1)CC1CCCO1 (stereo not drawn)	-6
COc1ccc(C(=O)N(C)CCn2ccnc2C)cn1	0
O=C(C[C@@H]1CC[C@H](NC(=O)CN2CCOCC2)[C@H](CO)O1)NC1CCC1	-12
COc1ccc2cc(C(=O)C3CCCN(C(=O)CCc4c(C)nn(C)c4C)C3)ccc2c1 (stereo not drawn)	-20
FC(F)(F)c1ccccc1CN1[C@@H]2CNC[C@H]1C2c1ccc(-c2ccncc2)cc1 (stereo partly drawn)	-23
CC(=O)N1CCO[C@H]2CCN(Cc3cncn3C)C[C@H]21	i
NC(=O)C1(N2CCCCC2)CCN(Cc2cc3n(n2)CCCNC3)CC1	7
Cc1cccc(CC(=O)NCCc2sc(-c3ccc(F)cc3)nc2C)c1	-15
COc1cc(N2CC[C@H]3[C@@H]2CCN3C(=O)c2ccc(C)nc2)ncn1	6
CCn1c(=O)c(C(=O)Nc2ccc(F)cc2)c(O)c2ccccc21	46
COc1ccc(S(=O)(=O)Nc2ccc3c(c2)CC(=O)N([C@H](C)CO)C[C@@H](C)[C@H](CN(C)C(=O)Nc2c(C)noc2C)O3)cc1	-4
CC(=O)Nc1cc(C)c(S(=O)(=O)NCc2ccc3[nH]c(C)c(C)c3c2)cc1C	39
Cc1noc(C)c1NC(=O)N[C@@H]1C=C[C@H](CC(=O)Nc2ccc(-c3ccccc3)cc2)O[C@@H]1CO	40

Screening data: PubChem BioAssay, Broad Institute
